Bioassay records deposited in PubChem by Fisher Drug Discovery Resource Center.
NPYLR7 agonist: agonists of mosquito NPYLR7 receptor, primary screen, cell-based, Aedes aegypti, calcium fluorescence, mosquito biting behavior | AID 1259423, 2018 | 0.15% of 270,000 active | activation, % at 10 µM | Aedes aegypti neuropeptide Y-like receptor 7 (NPYLR7) | HEK293T NPYLR7/Galpha15, GCaMP6s calcium fluorescence; in the data active = activation above about 40%;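 also: 0% = vehicle and 100% = reference agonist at the receptor; some compounds past the cut are filed as inactive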
NPYLR7 agonist max-min: also measured in NPYLR7 agonist; calls as there; activation, %; measured here: Max-Min RFU normalised activation; some inactives read as strong as hits;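 span of the calcium signal over five minutes; 0% = vehicle and 100% = native peptide agonist; compound fluorescence can raise it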
The depositor's hits bear a star; & = joins results of further samples.

Values run as follows: NPYLR7 agonist	NPYLR7 agonist max-min
> CCOc1ccccc1N1CCN(C(=O)C2CCC2)C(C)C1=O (configuration not stated)
→ 10	15
> CCCN(CC#Cc1ccccc1)c1nc(C)nc2oc(C)nc12
→ 3	0
> Cc1ccccc1Oc1cc(N2CCN(C(=O)Cc3cccs3)C(C)C2)ncn1 (configuration not stated)
→ -9	-3
> CCc1cccc2c(C(CC(=O)NCCCOC)c3cccc4c3OCO4)c[nH]c12 (configuration not stated)
→ 2	15
> Cc1cc(C)c(CCNS(=O)(=O)CC2CCOCC2)c(C)c1
→ -1	-3
> O=C(O)c1ccc(C2CCN(C(=O)C3CCOCC3)C2)cc1 (configuration not stated)
→ 3	1
> O=C(NC1CC1)c1ccc(CN(C2CC2)S(=O)(=O)c2cccc3nsnc23)cc1
→ -9	-8
> Cc1ccc(C(=O)Nc2ccc(CC#N)cc2)cc1F
→ -1	-4
> CC(=O)CCc1oc2ccc(C)cc2c1-c1ccc(C)o1
→ -8	0
> O=C1C=CC(=O)N1c1cc(Cl)c(Cl)cc1Cl
→ 4	2
> Cc1cn2c3c(=O)n(C)c(=O)n(C)c3nc2n1Cc1cccc2ccccc12
→ 3	-2
> CN(C)C(=O)CN1CCC(NC(=O)c2cncc(-c3ccc(N(C)C)cc3)c2)CC1
→ 10	5
> CCCOC1CCCN(Cc2cnc(S(=O)(=O)C3CCCC3)n2CCCOC)C1 (configuration not stated)
→ -5	-8
> CC1=C(C(=O)OC(C)C)C(c2coc3ccc(Cl)cc3c2=O)C2=C(CCCC2=O)N1 (configuration not stated)
→ -9	-15
> CN(C)S(=O)(=O)c1ccc(C(=O)Nc2ccc(Cl)cn2)o1
→ -8	-11
> CN(C)C(=O)N1CCCC(C(=O)Nc2ccc3c(c2)-c2ccccc2C3)C1 (configuration not stated)
→ 11	7
> C=C(Cl)Cn1ccnc1S(C)(=O)=O
→ 20	11
> Cc1cccc(C)c1-n1nnnc1SCc1nc(-c2ccccc2)no1
→ 35	25
> CC(C)(C)C(=O)NC(=S)Nc1ncccn1
→ -1	4
> C=CCOc1cccn2c(N(C)C(=O)c3ccccc3F)c(CC)nc12
→ -5	-6
> COc1ccc2[nH]c3c(c2c1)CCN(C(=O)c1cc(Cl)cc(Cl)c1)C3c1ccc(COC(C)=O)o1 (configuration not stated)
→ 6	-2
> CN(C(=O)c1nn2c(C(F)(F)F)cc(-c3cccs3)nc2c1Cl)C1CCCCC1
→ -11	-14
> Cn1c(=O)[nH]c(=O)c2c1nc1n(-c3ccc(F)cc3)c(-c3ccccc3)cn21
→ 3	0
> CC(Sc1n[nH]c(CC2CCCC2)n1)C(=O)N1CCNC1=O (configuration not stated)
→ 2	1
> CCCCn1c(=O)[nH]c(=O)c2c1nc(CNC(C)c1ccc(F)c(F)c1)n2CC (configuration not stated)
→ 1	-2
> Cc1nn(C)c(C)c1NC(=O)NCCc1ccc(F)cc1
→ 1	0
> CC(Oc1ccc(C(=O)Nc2ccc3c(c2)OC(C)(C)O3)cn1)c1ccccc1 (configuration not stated)
→ 2	5
> O=C(C1CCCN(c2ncnc3c2nc2n3CCCCC2)C1)N1CCCCC1 (configuration not stated)
→ 1	0
> COC(=O)Cn1c(=O)c2c(nc3n2CC(C)CN3c2ccccc2OC)n(C)c1=O (configuration not stated)
→ 1	-3
> CC(C)Oc1ccc(-c2cc(C(=O)N/N=C\c3ccccn3)[nH]n2)cc1
→ 1	0
> Cc1ccc(C(=O)NCC(O)c2cccc(Cl)c2)cn1 (configuration not stated)
→ 8	8
> NC(=O)c1ccc(NC(=O)NCCn2cnnc2C2CC2)cc1Cl
→ 1	0
> O=C(CN(CCN1CCOCC1)C(=O)Nc1c(Cl)cccc1Cl)N(CCc1ccccc1)Cc1ccco1
→ 4	3
> Cc1onc(-c2ccccc2Cl)c1C(=O)NC(C)Cc1c[nH]c2ccccc12 (configuration not stated)
→ 6	4
> CC(C)CN(CC(=O)Nc1cc(C(C)(C)C)nn1-c1ccccc1Cl)C(=O)c1ccc(Br)cc1
→ -4	3
> CC1CCN(CCCNS(=O)(=O)c2cc(Cl)cc(Cl)c2)CC1
→ 5	9
> O=C(c1ccco1)N1C[C@H](Oc2ccccn2)[C@H]2C[C@@H]1CC[C@H]2O
→ 23	33
> O=C(NCCc1cccs1)C1CCN(S(=O)(=O)c2ccc(F)c(F)c2)CC1
→ -1	4
> CC(C)N(CC(=O)Nc1cc(C(C)(C)C)nn1-c1ccc(Cl)c(Cl)c1)C(=O)c1ccccc1Cl
→ -12	-7
> O=C(COc1ccccc1)Nc1cccc(C2SCC(=O)N2c2ccc(C(F)(F)F)cc2)c1 (configuration not stated)
→ -7	-6
> O=C(Nc1nnc(-c2ccccc2Cl)o1)c1cc2cc([N+](=O)[O-])ccc2s1
→ 0	-2
> Cc1cc(C(c2ccc(C)o2)c2ccc(C)o2)c(O)c([N+](=O)[O-])c1
→ -4	-6
> Cc1cn2c3c(=O)n(CCN4CCOCC4)c(=O)n(C)c3nc2n1CCc1ccccc1
→ 13	5
> CCn1ccc(C(=O)Nc2nnc(-c3ccco3)o2)n1
→ 0	-1
> Cc1ccc(C2=C(Cl)S(=O)(=O)c3cc(C)ccc32)cc1
→ 9	7
> O=C(c1cc(-c2ccccc2F)nc2cc(-c3ccccc3)nn12)N1CCN(Cc2ccccc2)CC1
→ -10&6	-6&22
> O=C(N=Nc1c(O)[nH]c2ccccc12)c1ccccc1I
→ 1	-5
> COC1(C)CC(N(C)C(=O)NCC2CCN(C3CC3)C2)C1(C)C (configuration not stated)
→ 1	-1
> CC1=NC2=C(C(=O)CC(C)(C)C2)C(c2ccc(F)cc2)C1C(=O)Nc1ccccc1 (configuration not stated)
→ 0	-2
> COc1ccc(-c2cc(C(=O)O)c3c(C)nn(C4CCS(=O)(=O)C4)c3n2)cc1 (configuration not stated)
→ 0	-1

(continued)
Values run as follows: NPYLR7 agonist	NPYLR7 agonist max-min
> Cc1cn2c3c(=O)[nH]c(=O)n(C)c3nc2n1CCc1ccccc1
→ 9	4
> COc1cc(NCc2ccc3c(c2)OCCCO3)ncn1
→ 8	6
> CC1=NC2=C(C(=O)CC(c3ccc(Cl)cc3)C2)C(c2ccccc2)C1C(=O)OCc1ccccc1 (configuration not stated)
→ 3	6
> O=CN1CCCN(c2nc3nonc3nc2NC2CCCC2)CC1
→ 15	8
> COCCCN(Cc1nc(C(=O)OC)cs1)C(=O)Nc1ccccc1C(F)(F)F
→ -14	-9
> COc1ccc(-c2nn(-c3ccccc3)cc2CN2CCN(CC(=O)N(C)C)CC2)c(F)c1
→ -5	-9
> CC(CS(C)(=O)=O)C(=O)NC(c1ccccc1F)C1CCCC1 (configuration not stated)
→ 4	1
> CCOC(=O)C(Cc1ccccc1)NC(=O)N1CCN(c2c3c(nc4ncnn24)CCCC3)CC1 (configuration not stated)
→ 2	-2
> Cc1ccc(-n2c(Cc3ccccc3)nnc2SCCCC(=O)NC(c2ccccc2)c2ccccc2)cc1
→ -11	-5
> CC1CC(NC(=O)c2cc3c(=O)n4ccccc4nc3n2C)CC(C)(C)C1 (configuration not stated)
→ -2	-4
> O=C(COc1cc(Cl)ccc1Cl)NC1CCc2ccccc21 (configuration not stated)
→ 6	4
> CCCNC(=O)C1(C)CCCN(Cc2cccc(Oc3ccccc3)c2)C1 (configuration not stated)
→ 6	-1
> CNC(=O)Cc1ccccc1NC(=O)C1=Cc2cc(Br)ccc2OC1
→ -1	-3
> Cc1ccc(CN(C)C(C(=O)N(C)C)c2ccccc2)c(C)c1 (configuration not stated)
→ 8	5
> CC(C)NC(=O)CNC(=O)C1(c2ccccc2F)CC1
→ 3	2
> O=S(Cc1csc(-c2ncccn2)n1)CC1CCCCO1 (configuration not stated)
→ 9	5
> Cc1ccc(CSc2nc(N)c(NC(=O)c3ccco3)c(=O)[nH]2)cc1
→ 2	2
> O=C(c1cc(-n2cccc2)ccc1O)N1CCCC(Cn2ccnc2)C1 (configuration not stated)
→ 4	3
> COc1ccc2c(c1)-c1sc(C(=O)NCC(F)(F)C(F)(F)F)cc1CC2
→ 4	0
> COc1cccc(C(=O)N(CC(=O)N(CCc2ccc(OC)c(OC)c2)Cc2ccc(C)s2)C(C)C)c1
→ 3	-2

Copied from the list:
NPYLR7 agonist max-min result of `Cc1ccc(CN(C)C(C(=O)N(C)C)c2ccccc2)c(C)c1` (configuration not stated) : 5
NPYLR7 agonist max-min result of `COc1cccc(C(=O)N(CC(=O)N(CCc2ccc(OC)c(OC)c2)Cc2ccc(C)s2)C(C)C)c1` : -2

Profiles as entered above. Values in the order: NPYLR7 agonist | NPYLR7 agonist max-min
O=C(COc1cc(Cl)ccc1Cl)NC1CCc2ccccc21 (configuration not stated) is entered as 6 | 4
CCCNC(=O)C1(C)CCCN(Cc2cccc(Oc3ccccc3)c2)C1 (configuration not stated) is entered as 6 | -1
Cc1ccc(CSc2nc(N)c(NC(=O)c3ccco3)c(=O)[nH]2)cc1 is entered as 2 | 2
O=C(c1cc(-n2cccc2)ccc1O)N1CCCC(Cn2ccnc2)C1 (configuration not stated) is entered as 4 | 3

(continued)
Values run as follows: NPYLR7 agonist	NPYLR7 agonist max-min
> NC(=O)C1CCN(C(=O)c2ccc(S(=O)(=O)NCCc3ccccc3)o2)CC1
→ -5	-5
> O=C(NCCNC(=O)[C@H]1CCCN1S(=O)(=O)/C=C/c1ccccc1)c1ccc(F)cc1
→ -18	-13
> CC(=O)NCCNC(=O)C1(C)Cc2c(-c3cccc(C(N)=O)c3)ccnc2O1 (configuration not stated)
→ 4	9
> CC(C)COCC(O)CN1CCN(c2ccc(NC(=O)C(C)C)cn2)CC1 (configuration not stated)
→ 8	6
> O=C(CN(CCN1CCOCC1)C(=O)Nc1ccc(F)c(F)c1)N(Cc1ccc(F)cc1)Cc1ccco1
→ 0	5
> O=[N+]([O-])c1cc2c(c([N+](=O)[O-])c1)NCCC2
→ 7	13
> O=C(c1ccc2snnc2c1)N1CCOC(COCc2ccccc2F)C1 (configuration not stated)
→ 28	26
> O=c1oc2c(Br)c(O)c(Br)cc2s1
→ -3	-5
> CC12CCC(c3nc4cc(Cl)ccc4nc31)C2(C)C (configuration not stated)
→ 18	11
> CN(C)C1Cc2ccccc2N(C(=O)c2cc(-c3ccccn3)no2)C1 (configuration not stated)
→ -2	-5
> CC(C)(C)OC(=O)NC1(CN)CCCCCC1
→ -2	-2
> Cc1nc(C)c(CC(=O)N2CCC(N3CCC(C(=O)NC4CC4)CC3)CC2)s1
→ 3	7
> C=CCNC(=O)c1cc2c(=O)n3ccccc3nc2n1C
→ 2&0	1&1
> CC(=O)NCCc1ccc(-c2csc(-c3ccc(N(C)C)cc3)n2)cc1
→ -1	-2
> CCC(CNC(=O)c1ccc(C)nc1)N1CCc2ccccc2C1 (configuration not stated)
→ 0	-2
> Cc1onc(-c2c(Cl)cccc2Cl)c1C(=O)N1CCN(c2c3c(nc4ncnn24)CCCC3)CC1
→ -4	-5
> COc1ccc(C=CC(=O)OCc2cc(=O)oc3ccc4ccccc4c23)cc1
→ -6	-10
> c1ccc(Oc2ccccc2COc2ccc(-c3nnco3)cc2)cc1
→ 0	4
> CCOc1ccc(-c2[nH]ncc2-c2ccc(OC)c(OC)c2)c(O)c1
→ -1	-5
> O=C(NC1CCCCC1)c1cccnc1Oc1ccc(Cl)cc1
→ 6	9

Laid out differently: results already given
Compound | NPYLR7 agonist | NPYLR7 agonist max-min
CC(=O)NCCc1ccc(-c2csc(-c3ccc(N(C)C)cc3)n2)cc1 | -1 | -2
CCC(CNC(=O)c1ccc(C)nc1)N1CCc2ccccc2C1 (configuration not stated) | 0 | -2
Cc1onc(-c2c(Cl)cccc2Cl)c1C(=O)N1CCN(c2c3c(nc4ncnn24)CCCC3)CC1 | -4 | -5
COc1ccc(C=CC(=O)OCc2cc(=O)oc3ccc4ccccc4c23)cc1 | -6 | -10

Remaining list, next part.
Values run as follows: NPYLR7 agonist	NPYLR7 agonist max-min
> Cc1ccc(C=NN2CCOCC2)s1
→ -2	-4
> COc1cccc(CN2CCCC3(CCN(C(=O)c4ccsc4)C3)C2)c1 (configuration not stated)
→ 6	2
> CCC1CCc2[nH]c(=S)c(C#N)c(C(F)(F)F)c2C1 (configuration not stated)
→ 1	-1
> O=C(NCC(O)c1ccc(OC(F)F)cc1)c1ccc(Cl)s1 (configuration not stated)
→ 5	2
> CN(C(=O)c1ccc(C(C)(C)C)cc1)C1(C)CCS(=O)(=O)C1 (configuration not stated)
→ 4	0
> Cc1cc(F)ccc1S(=O)(=O)Nc1cnn(CC(F)F)c1
→ 9	7
> Cc1ccc(-n2c(=O)[nH]c3c(C(N)=O)nc(-c4ccc([N+](=O)[O-])cc4)nc32)cc1C
→ 15	7
> CCCCCCCC(=O)Nc1ccc(-n2nc(OCC(C)C)nc2-c2ccccc2F)cc1
→ -7	-9
> CN1C(=O)C(=Cc2ccccc2OCc2ccc([N+](=O)[O-])cc2)C(=O)N(C)C1=O
→ -16	-20
> OC(COc1ccccc1Cl)CSc1ccccn1 (configuration not stated)
→ -7	-9
> CO[C@H]1[C@H](NC(=O)CSC)c2ccccc2C12CCN(Cc1ccc3cccc(F)c3n1)CC2
→ 14	4
> CC(=O)N1CCCN(CC(=O)Nc2c(C#N)c(C)c(C)n2Cc2ccccc2)CC1
→ 9	4
> C=C1CCC(OC(C)=O)C2(C)CCC3C(C)C(=O)OC3C12O (configuration not stated)
→ 6	3
> Cc1cc(C)cc(S(=O)(=O)NCCNC(=O)c2ccc(NC(=O)C3CCCC3)cc2)c1
→ -9	-10
> CC(NC(=O)C1CCC1)c1nnc(SCc2ccccc2)n1-c1cc(Cl)ccc1Cl (configuration not stated)
→ -2	8

A portion of the library, so the mix of outcomes need not match the whole.
